UUG fidelity: modulators of yeast start codon fidelity, primary screen, whole organism, S. cerevisiae, single point, plate reader; S. cerevisiae UUG-firefly luciferase reporter, luminescence/redox ratio; activity score, % at 18.7 µM; 350,000 compounds, 0.13% hits; AID 602363, 2012;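 active means replicate mean at a twofold rise or more, about +100% in these data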;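 further: firefly luciferase made from a UUG start codon reports start codon fidelity; reporter light over untreated wells divided by growth signal over untreated wells; some hits fall short of that in this replicate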
HIV Env fusion: inhibitors of HIV-1 Env-driven cell-cell fusion, primary screen, HeLa-JRFL effector, CEM21 target cells, luciferase; inhibition, % at 12.3 µM; 360,000 compounds, 1.1% hits;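 active means mean replicate inhibition score of at least 50 and every replicate individually at or above 50; inconclusive means only one of the two criteria met; inactive means mean below 50 and not all replicates reaching 50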;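 further: 0% = plate neutral controls and 100% = maraviroc near 300 nM; one replicate is shown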
CSC inhib: cancer stem cell viability inhibitors, primary screen, luminescence; inhibition, % at 7.5 µM; 300,000 compounds, 1.1% hits; cancer stem cell-like cells viability;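 active means mean at 75% or more and at least half the replicates too; inconclusive means mean and replicates disagree; tested in HMLE shEcad cells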;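 further: 0% = median of negative and 100% = median of positive control wells; the first replicate is given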
PABP FP inh: PABP poly(A) RNA binding inhibitors, primary screen, biochemical, fluorescence polarization, uHTS; AID 2014, 2009; inhibition, % at 35 µM; 290,000 compounds, 1% hits; Polyadenylate-binding protein 1 (Homo sapiens), P11940;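 active means 50% or more with normal probe brightness, or confirmed in later tests; inconclusive means above 50% with abnormal brightness, or retests that disagree; inactive means below 50% or failed in later tests; about a fifth of its hits are not listed in these tables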;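 further: calls also rest on retests at 20 µM and on dose response follow-up; controls were probe without protein and protein plus probe with vehicle; some compounds called inactive have numbers as strong as hits; many hits fall short of the cut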
Target sequence (P11940 whole entry, looked up): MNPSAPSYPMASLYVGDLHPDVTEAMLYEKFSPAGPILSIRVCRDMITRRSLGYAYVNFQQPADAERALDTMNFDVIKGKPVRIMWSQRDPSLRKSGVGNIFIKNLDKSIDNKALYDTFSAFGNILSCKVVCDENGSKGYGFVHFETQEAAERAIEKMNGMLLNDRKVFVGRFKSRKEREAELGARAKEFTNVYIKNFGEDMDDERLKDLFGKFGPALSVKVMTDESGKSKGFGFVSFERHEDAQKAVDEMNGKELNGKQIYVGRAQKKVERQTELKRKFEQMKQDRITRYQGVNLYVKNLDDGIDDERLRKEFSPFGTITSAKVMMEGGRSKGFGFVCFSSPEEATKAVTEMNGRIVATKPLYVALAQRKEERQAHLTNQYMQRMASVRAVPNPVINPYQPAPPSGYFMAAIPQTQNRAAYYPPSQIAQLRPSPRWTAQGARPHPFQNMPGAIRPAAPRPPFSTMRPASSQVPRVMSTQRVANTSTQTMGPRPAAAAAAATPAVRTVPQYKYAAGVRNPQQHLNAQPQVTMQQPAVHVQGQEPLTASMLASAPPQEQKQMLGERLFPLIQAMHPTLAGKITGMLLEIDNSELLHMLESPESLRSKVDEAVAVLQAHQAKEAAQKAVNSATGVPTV
Rce1 inh: yeast Rce1p protease inhibitors, primary screen, biochemical, fluorescence, cell-free homogeneous | CAAX prenyl protease 2 (Saccharomyces cerevisiae (strain ATCC 204508 / S288c)), Q03530 | yeast membranes, quenched prenylated peptide cleavage fluorescence | calls only | 290,000 compounds, 0.27% hits | AID 2563, 2010;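 active means fall in fluorescence gain of 50% or more versus controls, with final raw signal at or below 3038400; inconclusive means same 50% fall but final raw signal above 3038400; inactive means fall in fluorescence gain under 50%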;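 further: plate controls were neutral control wells for no effect and wells lacking membranes for full effect; tested at 10 µM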
eIF4H inh: human eIF4H binding inhibitors, primary screen, translation initiation inhibitor project, biochemical, uHTS, fluorescence polarization. Eukaryotic translation initiation factor 4H (Homo sapiens), Q15056. eIF4H fluorescence polarization binding assay. inhibition, % at 35 µM. 290,000 compounds, 0.94% hits. AID 2012, 2009;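 active means 50% or more with normal probe brightness, or confirmed in later tests; inconclusive means above 50% with abnormal brightness, or retests that disagree; inactive means below 50% or failed in later tests; about a fifth of its hits are not listed in these tables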;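 further: calls also rest on retests at 20 µM and on dose response follow-up; 0% = protein and probe with vehicle and 100% = probe without protein; strong numbers were not always called active; many hits fall short of the cut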
MT1-MMP act inh: blockers of MT1-MMP proenzyme processing, primary screen, HT1080 RFP-PRO-GFP cells, GFP/RFP fluorescence; 360,000 compounds, 0.061% hits; GFP/RFP ratio change, % at 20 µM; GFP/RFP ratio fluorescence, overnight; percent of plate control window, DMSO zero; AID 651647, 2012;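 active means GFP/RFP ratio change of at least 30% with cell ATP level not reduced by more than half and red fluorescence within 50% of control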; further: strong numbers were not always called active
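Assay system: RFP-PRO-GFP reporter HT1080 cells; read-out basis: GFP/RFP fluorescence ratio; benchmarks: DMSO wells and RFP-L50D-GFP cells; doses: 20 µM single dose, 1% DMSO; schedule: overnight cell settling, then overnight compound exposure, 37 °C, 5% CO2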
MT1-MMP act inh RFP: second read-out of MT1-MMP act inh, no call of its own (marks repeat the call); RFP signal change, %; measured here: RFP expression control read;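 0 = vehicle wells; hits needed this value within 50% of zero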
An asterisk follows results filed as active; i = inactive; u = inconclusive; x = not tested or not shown; + = active, no number. A portion of the library; rates above refer to the full screens.

SMILES | UUG fidelity | HIV Env fusion | CSC inhib | PABP FP inh | Rce1 inh | eIF4H inh | MT1-MMP act inh | MT1-MMP act inh RFP
Cc1ccc(NC(=O)c2c(C)nc3sc(C(=O)NC4CCCC4)c(N)c3c2-c2ccco2)c(C)c1 | -20.7 | x | -3.2 | -2.3 | i | -3.6 | -3.0 | 4.2
O=[N+]([O-])c1ccc(C(O)CN2CCN(C/C=C/c3ccccc3)CC2)cc1 (configuration not stated) | 0.4 | 4.7 | 12.6 | -3.4 | i | -3.3 | 2.6 | -2.3
CCN(CC)CCCNC(=O)c1ccc(N2CCCCC2)c(NS(=O)(=O)c2ccc(C)cc2)c1 | x | -5.6 | -4.1 | 3.7 | i | 1.2 | 3.6 | 1.0
O=C(O)c1sc2cc(C(F)(F)F)cnc2c1-c1ccccc1 | x | 1.8 | 2.2 | 1.1 | i | -8.5 | 1.2 | -3.1
Cc1cc(N2CCOCC2)n2cc(-c3ccccc3)nc2n1 | x | 11.9 | -11.5 | 18.0 | + | 0.6 | 2.2 | 1.1
COc1ccc(N2CCN(CC(O)COc3ccc(C)c(C)c3)CC2)cc1 (configuration not stated) | -10.8 | -9.9 | -0.8 | 2.3 | i | -8.7 | 1.5 | 4.4
CCn1c(CNC(=O)c2ccc(OC)c(OC)c2)nnc1SCC(=O)Nc1ccccc1 | -17.9 | x | -0.9 | 20.1 | i | -4.4 | 1.0 | 4.4
Cc1[nH]c2ccccc2c1/C=N/NC(=O)CCC(=O)Nc1ccccc1 | -17.8 | -18.2 | -10.1 | -6.7 | i | 3.1 | -0.1 | 4.6
CCOC(=O)C(=O)N(C)c1c(CC)nc2c(OCc3ccccc3C)cccn12 | -16.4 | 20.3 | x | x | x | x | 1.9 | 2.3
O=C(c1cccc([N+](=O)[O-])c1)N1CCc2ccccc21 | -9.4 | 0.8 | -10.4 | -2.3 | i | 5.0 | -2.6 | 0.3
O=C1COc2ccc(-c3csc(=Nc4ccc(OC(F)F)cc4)n3CC3CCCO3)cc2N1 (configuration not stated) | 4.5 | 92.4* | 29.9 | 5.1 | i | -1.8 | -5.6 | -18.7
Cc1ccn2c(/C=N/OCc3ccc(F)cc3)c(-c3ccc(Cl)cc3)nc2c1 | -0.8 | x | 7.4 | 12.8 | i | -2.4 | 4.4 | 0.6

Record cards, from the list above. Order of values: UUG fidelity	HIV Env fusion	CSC inhib	PABP FP inh	Rce1 inh	eIF4H inh	MT1-MMP act inh	MT1-MMP act inh RFP
Cc1[nH]c2ccccc2c1/C=N/NC(=O)CCC(=O)Nc1ccccc1 across the screens: -17.8	-18.2	-10.1	-6.7	i	3.1	-0.1	4.6
CCn1c(CNC(=O)c2ccc(OC)c(OC)c2)nnc1SCC(=O)Nc1ccccc1 across the screens: -17.9	x	-0.9	20.1	i	-4.4	1.0	4.4

Additional compounds follow.
SMILES | UUG fidelity | HIV Env fusion | CSC inhib | PABP FP inh | Rce1 inh | eIF4H inh | MT1-MMP act inh | MT1-MMP act inh RFP
CC1=C(C(=O)N2CCOCC2)CC(CC(=O)NC2CCCC2)C(=O)N1CCCN1CCCC1=O (configuration not stated) | -14.5 | 19.6 | x | x | x | x | -0.2 | -2.6
COc1cccc(NC(=S)N(Cc2ccc(Cl)cc2)Cc2ccc(C(=O)O)cc2)c1 | x | 13.0 | 7.9 | -3.9 | i | -5.6 | -2.0 | 0.1
CN(CC(=O)Nc1ccc(F)c(F)c1F)C(=O)c1ccc(=O)[nH]c1 | -8.1 | 4.8 | -3.9 | 1.9 | i | -6.6 | -4.0 | 4.1
COC(=O)c1sc2ccc(C)cc2c1C(=O)OC | -45.6 | x | -11.4 | x | i | x | -2.1 | 4.7
Cc1cc(C)cc(N(CC(=O)NC2CCCC2)S(=O)(=O)c2c(C)[nH]c(=O)[nH]c2=O)c1 | 1.0 | 10.5 | -4.3 | -3.7 | i | -3.8 | -2.0 | 7.5
Cn1nc(C(=O)OCC(=O)NC2CCS(=O)(=O)C2)c2ccccc2c1=O (configuration not stated) | -16.0 | 5.4 | 8.3 | 11.3 | i | -6.1 | 3.4 | 5.3
c1ccc(-c2csc3ncnc(NCc4ccccn4)c23)cc1 | x | 22.5 | -4.7 | 0.4 | i | 4.4 | -4.4 | -33.5
O=C(/C=C/c1ccccc1Cl)Nc1ccc(S(=O)(=O)Nc2ncccn2)cc1 | x | -3.2 | -7.0 | 8.5 | i | 8.8 | 10.0 | 0.7
O=C(Nc1ccccc1Cl)N1CCN(Cc2ccc3c(c2)OCO3)CC1 | -3.0 | 14.0 | 11.4 | 6.7 | i | 2.9 | -1.5 | -0.5
COc1cccc(CN2C(=O)CCC2(C)C(=O)NCCc2ccc(OC)c(OC)c2)c1 (configuration not stated) | -9.0 | 8.8 | -10.5 | -2.4 | i | -2.8 | 0.1 | -1.2
Cc1cccc(N2CCN(C(=O)CSCc3c(C)noc3C)CC2)c1C | 0.8 | x | 3.0 | -1.5 | i | -1.8 | 8.4 | -18.4
COc1cccc(-n2cnnc2SC(C)C(=O)NC2CCCC2)c1 (configuration not stated) | -7.1 | x | 5.8 | x | x | x | -0.6 | -0.4
Cc1ccc(NS(=O)(=O)c2ccc3c(c2)CCN3C(=O)CCC(=O)O)cc1Cl | -17.0 | 1.1 | -1.7 | -2.6 | i | -0.3 | -0.5 | -0.8
Cc1ccc(C)c(NC(=O)Cn2cnc3c(oc4ccccc43)c2=O)c1 | 7.3 | 3.8 | -14.4 | 6.0 | i | -9.4 | 0.6 | 0.6
COc1ccc(N=C2NC(=O)CS2)c([N+](=O)[O-])c1 | x | 13.0 | -10.0 | -17.5 | i | -3.5 | 2.4 | 5.7
COc1ccc2c(c1)N(C)/C(=C1/SC(=S)N(NC(C)=O)C1=O)S2 | -24.4 | -26.4 | 10.2 | 9.9 | i | -7.9 | -8.3 | 3.4
Cc1ccc(C(=O)Nc2cccc(C(=O)NC3CCCC3)c2)cc1 | -17.7 | x | 5.5 | -1.0 | i | 1.5 | 1.0 | -10.1
CCN(c1ccc(OCC(=O)OCC(=O)Nc2ccc(F)c(F)c2F)cc1)S(=O)(=O)c1ccccc1 | x | x | 10.4 | -7.2 | x | -6.3 | -0.1 | 2.3
Cn1c(=O)cc(OCC(=O)NCCCN2CCN(Cc3ccccc3)CC2)c2ccccc21 | -11.8 | -240.4 | -10.6 | -13.2 | i | 1.4 | 0.8 | 4.1
COc1ccc(-c2nc(CS(=O)CC(=O)NCc3cccnc3)c(C)o2)cc1OC (configuration not stated) | -9.8 | -6.1 | 10.1 | -7.5 | i | -1.0 | -8.0 | 2.4
CC(=O)Nc1ccc(NC(=O)C(C)n2nc(C)c([N+](=O)[O-])c2C)cc1 (configuration not stated) | -9.4 | 7.2 | 9.9 | -5.6 | i | -4.1 | 2.2 | 1.7
COc1ccc(C)c2sc(=NC(=O)C(C)C)n(C)c12 | -12.5 | -27.4 | 10.5 | 6.5 | i | 1.1 | 2.4 | 0.6
Cc1nc(CNC(=O)CC2C(=O)NCCN2Cc2ccoc2)nc2c1CCCC2 (configuration not stated) | -12.3 | -1.5 | -7.5 | 16.5 | i | 9.7 | -3.4 | 3.7
Cc1oc(-c2cccc(C(F)(F)F)c2)nc1CN1CCC[C@H]1CO | 11.2 | 9.1 | -5.4 | 0.9 | x | -1.6 | -0.8 | 5.1
COc1ccccc1C(CC(=O)c1ccccc1)CC(=O)c1ccccc1 | x | 4.9 | 9.1 | 4.3 | i | 15.0 | -3.4 | -3.0
CCOC(=O)C1=C(c2cccc(Oc3ccccc3)c2)NC(=S)NC1C (configuration not stated) | -30.5 | x | 2.1 | 6.1 | i | -0.6 | -6.7 | -21.5
CCN1CCN(C(=O)CN(C)S(=O)(=O)c2ccc3ccccc3c2)CC1 | x | 8.5 | 5.0 | 1.5 | i | 6.4 | 6.1 | 8.6
O=C(Nc1ccon1)c1nc[nH]c1C(=O)NCc1ccccc1 | -18.0 | -3.9 | u | x | x | x | 7.3 | 2.6
COc1ccc(C(=O)CSc2cc(C)[nH]c(=O)n2)cc1 | -19.5 | -28.0 | 5.5 | x | i | x | -5.9 | 2.0
CCOC(=O)c1cc(C(=O)c2cc(Cl)ccc2O)coc1=N | x | -5.4 | -11.2 | -13.9 | i | 13.1 | -9.0 | 2.3
O=C(CCn1c(SCC(=O)c2ccccc2)nc2ccccc2c1=O)NCc1ccc(F)cc1 | -20.3 | -27.9 | -0.4 | -1.5 | i | -4.5 | 3.9 | -0.2
CCOC(=O)CSc1nc2ccc(N)cc2s1 | 5.4 | x | -7.5 | -0.8 | i | -9.3 | 0.8 | 2.3
O=C(Cc1cccc(F)c1F)NC1CCCN(Cc2ccc(Cl)cc2)C1 (configuration not stated) | -6.6 | 15.3 | -1.3 | 10.2 | i | -7.3 | 0.0 | 1.1
CCN(CC)S(=O)(=O)c1ccc2oc(C(=O)O)c(C)c2c1 | -3.9 | x | x | 1.0 | i | 16.5 | 5.7 | 10.1
CCN(CC)CCNC(=O)c1sc2nc(-c3ccccc3)cn2c1C | 10.1 | x | 3.9 | -0.1 | i | -3.0 | 1.0 | -0.2
CCOC(=O)c1cc2occc2n1CC(=O)N1CCCc2ccccc21 | -17.1 | x | -14.3 | -0.9 | i | -2.5 | -2.1 | 1.3
O=C(Nc1ccc(Nc2ccccc2)cc1)c1ccc(Cl)cc1[N+](=O)[O-] | -22.9 | -15.7 | 49.4 | x | i | x | 4.8 | -0.2
COCCNc1nc2c(S(=O)(=O)c3cc(C)ccc3C)nnn2c2ccccc12 | -10.4 | -1.9 | -0.6 | -7.1 | i | 5.3 | 2.2 | -0.8
COc1cc(/C=N/NC(=O)C2c3ccccc3Oc3ccccc32)ccc1O | x | x | -5.5 | 10.2 | i | 9.8 | 5.1 | 0.8
CCOC(=O)CCc1cccc2c1CCC2=O | -19.3 | x | -0.6 | -5.4 | i | -7.5 | 1.2 | 5.7
COc1ccc(OC)c(/C=C/C(=O)N(C)CC(=O)Nc2cc(C)ccc2C)c1 | 7.6 | x | -15.4 | 2.9 | i | -0.8 | 1.4 | 1.2
CCC(C)Sc1nc2c(c(=O)[nH]c(=O)n2C)n1C (configuration not stated) | -8.0 | -124.7 | 5.2 | -3.9 | i | -1.7 | 4.7 | 12.2
COC(=O)c1c(/N=C/NOCc2ccc(Cl)cc2)sc2c1CCN(c1ncc(C(F)(F)F)cc1Cl)C2 | -11.1 | x | 8.5 | 1.2 | i | -3.4 | -11.9 | 2.4
COc1ccccc1NC(=O)C1=C(C)NC2=C(C(=O)CCC2)C1c1ccc2c(c1)OCO2 (configuration not stated) | 3.8 | x | -0.5 | 1.2 | i | -2.9 | 7.7 | 3.4
O=c1ccc(-c2ccc(S(=O)(=O)NCC3CCN(Cc4ccccc4F)CC3)s2)n[nH]1 | -1.2 | -22.2 | -0.4 | -6.9 | i | -0.9 | 3.1 | 2.5
CC(=O)Nc1ccc(CNC(=O)C[N+]2(C)CCOCC2)cc1 | x | -11.3 | -13.7 | -1.0 | i | 2.1 | -0.1 | 3.3
CCCc1cc(C(=O)N2CCCC(N3CCN(c4ccccc4C)CC3)C2)n(C)n1 (configuration not stated) | -8.5 | 3.9 | 36.3 | -10.9 | i | -3.5 | -0.1 | -3.4
O=C(O)CCC(=O)c1c[nH]c2ccccc12 | 16.6 | -2.2 | 4.5 | -0.6 | i | 2.1 | -0.7 | 3.6

High-throughput results from PubChem.
